RGS16-Gao: modulators of RGS16 binding to Galphao, primary screen, biochemical, human proteins, multiplexed bead flow cytometry | Regulator of G-protein signaling 16 (Homo sapiens) + Guanine nucleotide-binding protein … | bead-based flow cytometry RGS16-Galphao binding, fluorescence; actives lie on both sides | binding response (% of control), % at 10 µM | 0.38% of 220,000 active | AID 1441, 2008;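 active = below 25% or above 175%, edge rows of some plates excepted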;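 note: Galphao activated by GDP with aluminum fluoride before binding; 100% = wells without compound and 0% = beads without RGS; some results beyond the cut were filed as inactive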
Target sequence (O15492 whole entry, looked up): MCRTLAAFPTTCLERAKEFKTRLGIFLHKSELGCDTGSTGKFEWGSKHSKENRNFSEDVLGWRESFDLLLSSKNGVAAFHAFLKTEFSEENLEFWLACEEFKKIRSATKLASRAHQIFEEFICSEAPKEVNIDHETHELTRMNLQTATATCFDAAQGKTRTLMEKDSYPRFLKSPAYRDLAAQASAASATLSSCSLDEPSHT
Target sequence (P09471 whole entry, looked up): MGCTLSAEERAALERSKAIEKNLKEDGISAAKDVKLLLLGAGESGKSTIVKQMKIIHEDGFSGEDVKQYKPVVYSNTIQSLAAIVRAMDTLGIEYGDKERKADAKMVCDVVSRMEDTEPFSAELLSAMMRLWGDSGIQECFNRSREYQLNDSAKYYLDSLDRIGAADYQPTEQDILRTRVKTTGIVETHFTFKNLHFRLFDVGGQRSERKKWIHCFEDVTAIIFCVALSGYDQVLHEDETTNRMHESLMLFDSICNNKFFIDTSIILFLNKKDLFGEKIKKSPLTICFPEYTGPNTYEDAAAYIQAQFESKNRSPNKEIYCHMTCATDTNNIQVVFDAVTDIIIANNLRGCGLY
GALR2 ag: GALR2 receptor agonists, primary screen, cell-based | AID 803, 2007 | Galanin receptor type 2 (Homo sapiens), O43603 | activation, %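 (tested at 5 µM)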 | GALR2-expressing cells, agonist activation read-out | 0.48% of 140,000 active;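 active = above mean plus 3 SD of all compounds, about 5% in these data, not always enough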;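 note: 0% = vehicle buffer wells and 100% = reference agonist at full effect; tested in CHO reporter cells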
Target sequence (O43603 whole entry, looked up): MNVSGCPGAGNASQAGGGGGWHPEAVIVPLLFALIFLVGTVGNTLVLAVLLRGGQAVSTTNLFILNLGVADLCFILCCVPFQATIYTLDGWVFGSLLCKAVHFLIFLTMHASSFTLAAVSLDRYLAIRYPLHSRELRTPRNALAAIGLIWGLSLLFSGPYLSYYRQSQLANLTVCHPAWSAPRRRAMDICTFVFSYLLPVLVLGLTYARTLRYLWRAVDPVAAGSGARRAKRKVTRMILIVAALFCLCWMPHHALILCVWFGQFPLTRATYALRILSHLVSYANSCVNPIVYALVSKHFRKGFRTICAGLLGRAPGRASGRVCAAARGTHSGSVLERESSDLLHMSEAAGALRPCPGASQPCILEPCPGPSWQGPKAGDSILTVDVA
PKD1 kinase inh: inhibitors of human PKD1 kinase, biochemical, fluorescence polarization; Serine/threonine-protein kinase D1 (Homo sapiens), Q15139; PKD1 kinase fluorescence polarization assay; inhibition, %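 (about 10 µM by stock and volumes)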; 0.056% of 200,000 active; AID 797, 2007;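 active = inhibition of 50% or more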;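 note: controls were vehicle for no effect and a reference inhibitor for full effect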
HSV replic up: enhancers of HSV replication in host cells, fold increase, host cell viability; maximum fold increase; HSV replication augmentation in cells; 0.005% of 220,000 active;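 active = peak rise of 1.5-fold or more in the series; inconclusive = self-fluorescent or not available for retest; tested in PC3 cells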;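 note: first round at 10 µM; read as green reporter fluorescence; hits show the peak of a series up to 25 µM; 1 = signal of infected wells without compound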
INS promoter inh: inhibitors of insulin promoter-driven GFP, primary screen, imaging, TRM-6 cells (human fetal islet line), eGFP reporter, cell count; reporter expression induced with tamoxifen; 0.9% of 130,000 active; inhibition, % at 2 µM;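 active = inhibition above the mean plus 3 SD, with well images judged a real hit on visual review, cut at about 60% in these data, passing the limit was not always enough; inconclusive = inhibition over the cutoff but images rejected on review; inactive = inhibition not above the cutoff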
INS promoter inh cell count: further read-out of INS promoter inh, marked with its call; normalized cell count, %; measured here: cell count, toxicity; reference of the scale not given here;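 cells exposed to compound for 48 h; stained nuclei by imaging scaled within each plate; lower means fewer cells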
HSV replic up primary fold: second read-out of HSV replic up, no call of its own (marks repeat the call); fold increase; compound at 10 µM; measured here: primary screen fold increase 10 uM; tested in PC3 cells;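 GFP signal in the first replicate; 1 = infected wells without compound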
Active calls of the source: *; i = inactive; ? = inconclusive; · = not tested or not shown. This is a random part of the collection; about 1.3% have a hit in one of these screens.

SMILES | RGS16-Gao | GALR2 ag | PKD1 kinase inh | HSV replic up | HSV replic up primary fold | INS promoter inh | INS promoter inh cell count
CCOC(=O)C1CCCN(Cc2c(F)cccc2Cl)C1 (configuration not stated) | 107 | -2.7 | -14 | i | 0.91 | 67 | 41
CC(=O)c1ccc(OCc2ccc(C(=O)c3ccccc3)cc2)cc1 | 100 | · | -7 | i | 0.88 | · | ·
COC1CCN(C(=O)c2ccc(OC3CCN(CCc4ccccc4)CC3)cc2)CC1 | 101 | · | -3 | i | 0.91 | 30 | 150
Cc1ccc(-c2nnc(-c3ccccc3)c(N3CCOCC3)n2)cc1 | 101 | -1.2 | -2 | i | 0.89 | -13 | 99
CC(C)CCN(C(=S)Nc1cccc(F)c1)C(C)c1cccs1 (configuration not stated) | 100 | · | -7 | i | 0.97 | 7 | 57
COc1ccc(CO/N=C/c2c(C)[nH]c(=O)[nH]c2=O)cc1 | 102 | -2.3 | -5 | i | 0.97 | -3 | 131
O=c1c2ccccc2nc2n1C(CSCc1cccc(C(F)(F)F)c1)CS2 (configuration not stated) | 103 | 0.0 | 1 | i | 0.98 | -57 | 73
COc1cccc(CN(Cc2ccco2)C(c2ccc(F)cc2)c2nnnn2C(C)(C)C)c1 (configuration not stated) | 44 | -0.6 | -4 | i | 1 | -92 | 109
CCOC(=O)C(NCCCO)c1ccccc1 (configuration not stated) | · | -3.7 | 6 | i | 1.1 | 36 | 76
COc1ccc(-n2c(CN3CCC(C)CC3)nc3ccc([N+](=O)[O-])cc3c2=O)c(OC)c1 | 92 | · | 4 | i | 0.99 | · | ·
O=C(COC(=O)c1ccccc1Sc1ccc(C(F)(F)F)cc1[N+](=O)[O-])NC(=O)NC1CCCC1 | 100 | 0.1 | 0 | i | 0.87 | -13 | 126
O=C(/C=N/NC(=O)c1ccccc1Br)c1ccccc1 | 102 | · | 8 | i | 1.2 | -76 | 105
NC(=O)c1ccc(-c2ccccc2F)cc1 | 104 | · | · | i | 1.1 | · | ·
CCS(=O)(=O)N1Cc2ccccc2CC1C(=O)Nc1nc(C)cs1 (configuration not stated) | 99 | · | -2 | i | 1.1 | 39 | 193
CCCOc1ccc(C(=O)NNC(=S)NC(=O)CC)cc1 | 104 | -2.6 | 0 | i | 0.46 | 17 | 93
COc1ccccc1Nc1cc(N2CCOCC2)c2nonc2c1[N+](=O)[O-] | 100 | · | -1 | i | 0.94 | · | ·
CCOC(=O)c1c2n(c3c(NCc4ccccc4)ncnc13)CCCC2 | 100 | 0.1 | -15 | i | 0.63 | · | ·
O=c1cc(N2CCCCC2)c(-c2ccccc2)nn1Cc1cccc(F)c1 | 97 | · | 0 | i | 0.9 | · | ·
COc1cc(/C=C/C(=O)OCC(=O)Nc2ccc(C)c(S(=O)(=O)N3CCCCC3)c2)ccc1O | 100 | -1.1 | 5 | i | 1 | -3 | 94
CC(=O)Nc1ccc(S(=O)(=O)Nc2nc3ccc([N+](=O)[O-])cc3s2)cc1 | 101 | · | 1 | i | 0.9 | 27 | 125
COc1ccc2[nH]c(O)c(N=O)c2c1 | 99 | -2.4 | 4 | · | · | 23 | 120
O=C1CCCC(O)=C1N=Nc1ccc(S(=O)(=O)N2CCOCC2)cc1 | 99 | · | · | i | 0.97 | · | ·
CC(C)Sc1oc(-c2ccco2)nc1S(=O)(=O)c1ccc(F)cc1 | 94 | -0.8 | -2 | i | 1 | 3 | 111
CCOC(=O)c1c(C)[nH]c(C)c1C(=O)COC(=O)c1ccc(Cl)c(S(=O)(=O)NCc2ccccc2)c1 | 106 | -1.4 | -7 | i | 0.81 | · | ·
COc1ccc(Cl)cc1S(=O)(=O)N1CCN(C(=O)COc2ccccc2)CC1 | 97 | 1.3 | -9 | i | 0.93 | -20 | 119
O=C(O)Cc1ccccc1C(=O)O | 109 | -1.2 | 10 | i | 0.87 | -47 | 61
CCC(Sc1ncccc1C(=O)O)C(=O)N1CCOCC1 (configuration not stated) | 102 | -0.8 | 1 | i | 0.9 | · | ·
COc1ccc(NC(=O)CCCn2c(=S)[nH]c3ccccc3c2=O)cc1 | 102 | 0.8 | 6 | i | 0.89 | · | ·
COc1nnc(-c2ccc(C(=O)N3C[C@@H]4C[C@H](C3)c3cccc(=O)n3C4)cc2)c2ccccc12 | 101 | -1.3 | -7 | i | 0.92 | · | ·
CS(=O)(=O)N(CC(=O)NC1CC1)C1CCCCC1 | 105 | -1.3 | 0 | i | 1.1 | 65 | 123
CCOC(=O)C1CCCN(c2ccc(NC(=O)c3snc4c(=O)[nH]cnc34)cc2)C1 (configuration not stated) | 94 | -0.2 | -3 | i | 0.75 | -71 | 91
CCCCSc1nnc([C@H](CC(C)C)NC(=O)OC(C)(C)C)o1 | 105 | -0.4 | 11 | i | 0.76 | · | ·
CCCCCCn1nc(C(=O)Nc2nc3c(s2)CCCC3)c2ccccc2c1=O | 85 | -1.6 | 14 | i | 1.1 | · | ·
CCN1CCN(c2c(/C=C3\SC(=S)N(Cc4ccco4)C3=O)c(C)c(C#N)c(=O)n2C)CC1 | 111 | · | · | ? | · | · | ·
CCCn1c(SCC(=O)Nc2ccccc2CC)nnc1C(C)C | 103 | 0.2 | 13 | i | 1.1 | -50 | 76
O=C(c1cc([N+](=O)[O-])cc([N+](=O)[O-])c1)N1CCN(Cc2ccc3c(c2)OCO3)CC1 | 102 | · | -2 | i | 0.81 | -73 | 82
N#CCCN1CCN(S(=O)(=O)c2ccc(S(=O)(=O)NC3CC3)cc2)CC1 | 103 | -0.4 | -3 | i | 1.4 | · | ·
O=[N+]([O-])c1cccc(-c2csc(N/N=C/c3cccc(O)c3)n2)c1 | 97 | · | -2 | i | 0.87 | 40 | 98
COc1ccccc1CNC(=O)CSc1nnc2ccc(-c3cccnc3)nn12 | 104 | · | 0 | i | 0.9 | · | ·
CC1(C)CC(=O)C(C2C3=C(CC(C)(C)CC3=O)OC3=C2C(=O)CC(C)(C)C3)=C(O)C1 | 99 | · | · | i | 0.83 | · | ·
Fc1ccc(NC(=S)Nc2ccccc2OC(F)F)cc1Cl | 101 | -0.2 | -1 | i | 1.3 | · | ·
COCCOC(=O)C1=C(C)Nc2ncnn2C1c1ccco1 (configuration not stated) | 106 | · | · | i | 0.99 | · | ·
COc1cccc2c(N/N=C/c3ccco3)cc(C)nc12 | 95 | · | -3 | i | 0.95 | · | ·
COc1cc2c(cc1NC(=O)COC(=O)[C@@H](NS(=O)(=O)c1ccccc1)C(C)C)oc1ccccc12 | 101 | -0.7 | -8 | i | 0.79 | -1 | 148
COc1ccc(-c2nc(CN3CCCCC3c3cccnc3)c(C)o2)c(F)c1 (configuration not stated) | 106 | · | -7 | i | 0.99 | · | ·
Cc1ccnc(NC(c2ccccn2)c2c(C)[nH]c3ccccc23)c1 (configuration not stated) | 101 | · | 2 | i | 0.99 | -53 | 92
COc1ccc(/C=N/NC(=O)c2ccccc2[N+](=O)[O-])cc1CN1CCc2cc(OC)c(OC)cc2C1C (configuration not stated) | 103 | · | 6 | i | 0.97 | · | ·
Cc1nc2sc(-c3ccccc3)cc2c(=O)n1/N=C/N(C)C | 106 | · | -2 | i | 1.1 | · | ·
O=C(OCc1nnc(-c2ccccc2)o1)c1ccc(CO)cc1 | 104 | · | 6 | i | 1 | · | ·
CCOC(=O)c1cccc(Nc2nc(C)cc(C)n2)c1 | 99 | -1.4 | 3 | i | 0.9 | 30 | 78

Some entries already given, limited to RGS16-Gao, INS promoter inh and HSV replic up.
Molecule | RGS16-Gao | INS promoter inh | HSV replic up
O=c1cc(N2CCCCC2)c(-c2ccccc2)nn1Cc1cccc(F)c1 | 97 | · | i
COc1ccc(CO/N=C/c2c(C)[nH]c(=O)[nH]c2=O)cc1 | 102 | -3 | i
CCOC(=O)c1c2n(c3c(NCc4ccccc4)ncnc13)CCCC2 | 100 | · | i
CC1(C)CC(=O)C(C2C3=C(CC(C)(C)CC3=O)OC3=C2C(=O)CC(C)(C)C3)=C(O)C1 | 99 | · | i

Additional compounds follow:
SMILES | RGS16-Gao | GALR2 ag | PKD1 kinase inh | HSV replic up | HSV replic up primary fold | INS promoter inh | INS promoter inh cell count
CC1CN(C(=O)C(c2ccccc2)c2ccccc2)CC(C)O1 (configuration not stated) | 119 | -2.5 | 0 | i | 0.88 | 31 | 62
C=CCSc1nc2sc(C)c(C)c2c(=O)n1N | 117 | 0.1 | 7 | i | 0.87 | 25 | 108
COc1ccc(S(=O)(=O)N2CCOC2CNC(=O)C(=O)NCCc2ccc(OC)c(OC)c2)cc1C (configuration not stated) | 102 | -0.7 | -2 | i | 0.9 | · | ·
CCCCNC(=S)N1CCN(c2ccccc2Cl)CC1 | 102 | · | 6 | i | 1 | · | ·
COc1cccc(OC)c1C(=O)N1CCN=C1SCc1cccnc1 | 113 | -0.8 | 3 | i | 1.2 | · | ·
Fc1ccc(/C=N/Nc2ncnc3nc[nH]c23)cc1F | 94 | -0.5 | -2 | · | · | 60* | 105*
CCOC(=O)C1=C(C)N=C2SC=C(C)N2C1c1ccc(OC)cc1 (configuration not stated) | 102 | · | -4 | i | 0.88 | · | ·
COC(=O)c1ccc(NC(=O)C2CCCN(S(=O)(=O)c3cnc[nH]3)C2)cc1 (configuration not stated) | 101 | -3.0 | -1 | i | 0.99 | · | ·
CC(=O)N/C(=C\c1ccccc1)C(=O)Nc1ccccc1C | 102 | · | -6 | i | 0.98 | · | ·
N#CC1=C(N)C(C#N)(C#N)C(c2cccnc2)C2CC(c3ccccc3)CC=C12 (configuration not stated) | 99 | 1.0 | -10 | i | 0.94 | 32 | 152
CC(C)NC(=O)C(=O)NNC(=O)CCc1ccccc1 | 104 | · | 5 | i | 0.87 | · | ·
CCOC(=O)C1=C(C)Nc2ncnn2C1c1ccc(N(C)C)cc1 (configuration not stated) | 94 | 0.3 | -4 | i | 0.92 | 10 | 111
CN1CCN(C(=O)c2c(O)c3cccc4c3n(c2=O)CCC4)CC1 | 100 | -0.9 | -7 | i | 0.98 | · | ·
COc1ccccc1NC(=O)COC(=O)[C@@H]1CCCN1C(=O)c1cccs1 | 94 | -0.4 | -12 | i | 1 | 3 | 69
Cc1cccc2cc(C#N)c(NCCNC(=O)COc3ccccc3)nc12 | 107 | · | -1 | i | 0.93 | · | ·
Nc1c(C(=O)Nc2ccccc2)sc2nc(-c3cccnc3)ccc12 | 102 | · | · | i | 1.1 | · | ·
O=C(CSc1nnc(-c2ccco2)o1)N1CCN(c2ccccc2)CC1 | 95 | · | 8 | i | 1.1 | · | ·
O=S(=O)(NCc1ccc2c(c1)OCO2)c1cccc2nsnc12 | 99 | · | · | i | 0.85 | · | ·
O=C(Nc1cccs1)OCCN1CCN(Cc2ccccc2)CCC1=O | 102 | -0.6 | -18 | i | 0.94 | -40 | 127
CCCCc1c(CCC)c(=N)c2ccccc2n1C | 104 | -1.3 | 0 | i | 1 | -11 | 104
OC1(CNCc2ccccc2)C2CC3CC(C2)CC1C3 (configuration not stated) | 99 | · | · | i | 1.2 | · | ·
Cc1ccc(CN2C(=O)CCC2C(=O)NCCCN2CCCC(C)C2)cc1 (configuration not stated) | 105 | -0.2 | -4 | i | 0.92 | -17 | 122
C/C(=N\NS(=O)(=O)c1ccc(C)cc1)c1cccs1 | 83 | -0.3 | -4 | i | 1 | -1 | 93
O=C1CN(C(=O)CN2C(=O)NC3(CCCCC3)C2=O)c2ccccc2N1 | 97 | · | -5 | i | 0.94 | · | ·
CC(NCCOCCOc1ccccc1)c1ccccc1 (configuration not stated) | 99 | -1.1 | -11 | i | 1 | · | ·
COC(=O)c1ccc(NC(=O)Cc2ccc(F)cc2)cc1 | 97 | · | 3 | i | 0.87 | · | ·
O=C(Oc1ccc(Cl)cc1)c1ccc(COC(=O)c2cnccn2)cc1 | 100 | -2.5 | 3 | i | 1.1 | · | ·
NC(=O)COC(=O)CC(NC(N)=O)c1ccc(Cl)cc1 (configuration not stated) | 104 | -0.5 | 3 | i | 1 | · | ·

Copied from the list.
Under HSV replic up primary fold, COc1ccc(-c2nc(CN3CCCCC3c3cccnc3)c(C)o2)c(F)c1 (configuration not stated) has the entry 0.99
Under GALR2 ag, O=C(O)Cc1ccccc1C(=O)O has the entry -1.2

Bioassay records deposited in PubChem by several laboratories.
